Mtb hypoxia inh – reduces hypoxia-regulated biosensor signal in M. tuberculosis; M. tuberculosis hypoxia-regulated fluorescent reporter, fluorescence; fluorescence inhibition, % (test concentration not listed); 0.1% of 300,000 active;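 active means 35 to 45% if threefold the growth effect, above 45% if 1.5-fold the growth effect; inactive means the rest, general growth blockers included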;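 further: wells of about 50 µL received 100 nL stock; 0% = vehicle wells and 100% = reference inhibitor wells; whole bacteria with a GFP reporter of the hypoxia response; strong numbers were not always called active; many hits fall short of the cut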
Bead autofluor – counter-screen for toxin protease inhibitors: compound fluorescence. compound autofluorescence counterscreen, microsphere flow cytometry; hits give high values. fluorescence intensity (no concentration beside the values). 3.1% of 360,000 active;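 active means at least 3 SD above the mean of all compounds, about 16000 in these data; inconclusive means too few beads counted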;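 further: 100 nL of 1 mM stock went into each well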
BJeLR lethal – BJeLR cell viability loss | 0.17% of 300,000 active | AID 1554 | inhibition, % (test concentration not listed) | BJeLR (HRASV12) viability, CellTiter-Glo ATP luminescence, 48 h; reference of the scale not given here;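 active means replicate mean above 50%; inconclusive means above 50% but judged a plate artefact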;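 further: 50 nL library stock added to about 25 µL; numbers are from one replicate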
ugtP null kill – compounds lethal to S. aureus RN4220 ugtP deletion mutant | OD600 growth, 16 h; some inactives read as strong as hits | growth inhibition, % (test concentration not listed) | 0.54% of 330,000 active | AID 1259309;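 active means z-score under -3 and OD600 up to 0.15 on both plates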;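 further: plate controls were untreated wells for no effect and antibiotic for full effect; wells of about 80 µL received 100 nL stock; the first replicate is given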
PrP UTR inh – suppresses PrP 5' UTR mRNA reporter expression; cell-based PrP 5' UTR mRNA reporter, plate reader; inhibition, % (test concentration not listed); 0.35% of 340,000 active; AID 488862;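 active means every replicate at 50% or more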;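 further: 0 = median of the neutral control wells; tested in H4 reporter cells; numbers are from one replicate; inactives centre near -14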
RN4220 kill – kills Staphylococcus aureus RN4220. S. aureus RN4220 growth, OD600, 16 h. inhibition, % (test concentration not listed). 0.33% of 330,000 active. AID 1259311;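 active means z-score of -3 or lower and OD600 up to 0.18 on both plates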;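 further: plate controls were untreated cells for no effect and reference antibiotic for full effect; stock transfer was 100 nL into about 80 µL; one replicate is shown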
Mtb hypoxia inh growth – also measured in Mtb hypoxia inh; calls as there; growth inhibition, %; measured here: M. tuberculosis growth (absorbance);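 0% = vehicle and 100% = reference antibiotic; read after six days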
Starred values were filed as active, the others as inactive; u = inconclusive; x = not tested or not shown. Random draw from the library, and some 4% of all compounds hit somewhere here.

SMILES	Mtb hypoxia inh	Mtb hypoxia inh growth	Bead autofluor	BJeLR lethal	ugtP null kill	PrP UTR inh	RN4220 kill
CC(=O)N1N=C(c2c(O)n(C)c(=O)n(C)c2=O)CC1c1ccccc1 (stereo unspecified)	10	-3	5758	7	-6	-11	18
CN1CCN(C2Cc3ccccc3Sc3cc(C(F)(F)F)ccc32)CC1 (stereo unspecified)	x	x	x	12	-7	x	17
COc1ccc2cc(-c3[nH]ncc3CNCCn3nc(C)cc3C)ccc2c1	-3	-2	4657	4	-5	-6	0.4
CCCCCCCCCCCC(=O)c1c(O)cccc1O	x	x	5763	2	100*	-2	100*
C[n+]1ccccc1C1CCCCC1=NNC(N)=S (stereo unspecified)	-4	0	x	x	8	x	6.4
NC(=O)c1ccccc1Nc1nc(NCCO)nc(N2CCCC2)n1	-3	4	2957	-2	-7	-8	-1.1
NNC(=O)CN1CCN(c2ncc(C(F)(F)F)cc2Cl)CC1	13	-3	4146	3	6	-13	3.7
CC(=O)Nc1sc(C)c(C)c1CN1CCN(S(=O)(=O)c2ccccc2)CC1	-2	8	3008	-9	-8	-13	-6.6
COC(=O)c1oc2ccc(Br)cc2c1NC(=O)CCN1CCOCC1	-3	3	u	-3	-8	-8	2.3
COc1ccccc1NC(=O)c1ccc(NC(=O)c2cc3c(s2)CCC3)cc1	11	12	2016	5	-7	-17	-3.5
O=C(/C=C/c1ccc(Cl)cc1)NCc1cccs1	x	x	1934	8	x	-30	x
O=C(CSc1ccc(Br)cc1)Nc1ccccc1N1CCOCC1	-6	-1	5821	-1	-14	0	-3.9
Cc1csc(NC(=O)CCN2C(=O)c3ccccc3S2(=O)=O)n1	-6	16	4011	-6	1	-20	1.4
O=C(NCc1ccco1)c1ccc(CS(=O)Cc2ccc(Cl)cc2)o1 (stereo unspecified)	8	4	5746	8	8	-21	3.2
CN(c1cccnc1)c1ncnc2[nH]ncc12	2	5	4659	1	14	-20	2.4

Four consecutive compounds from above:
SMILES	Mtb hypoxia inh	Mtb hypoxia inh growth	Bead autofluor	BJeLR lethal	ugtP null kill	PrP UTR inh	RN4220 kill
CN1CCN(C2Cc3ccccc3Sc3cc(C(F)(F)F)ccc32)CC1 (stereo unspecified)	x	x	x	12	-7	x	17
COc1ccc2cc(-c3[nH]ncc3CNCCn3nc(C)cc3C)ccc2c1	-3	-2	4657	4	-5	-6	0.4
CCCCCCCCCCCC(=O)c1c(O)cccc1O	x	x	5763	2	100*	-2	100*
C[n+]1ccccc1C1CCCCC1=NNC(N)=S (stereo unspecified)	-4	0	x	x	8	x	6.4

Later entries
SMILES	Mtb hypoxia inh	Mtb hypoxia inh growth	Bead autofluor	BJeLR lethal	ugtP null kill	PrP UTR inh	RN4220 kill
COc1ccc([N+](=O)[O-])cc1NC(=O)Nc1cccc(Cl)c1	14	6	8370	13	0	-3	7.5
O=C(CN(C(=O)Cn1nnc(-c2ccc(F)cc2)n1)c1ccc(F)c(Cl)c1)NCC1CCCO1 (stereo unspecified)	-7	3	2166	-4	14	-31	-3.5
CCOC(=O)/C(C#N)=C/Nc1cc(OC)ccc1OC	3	13	2039	-21	2	-84	2.3
CCOc1ccc(-n2c(O)c(C=NCCN3CCNCC3)c(=O)[nH]c2=O)cc1	3	15	6045	5	0	-17	0.2
CCC1CCCCN1P(=O)(c1ccc(C)o1)C(C)(C)C (stereo unspecified)	10	15	12454	0	-3	6	7.6
CN(Cc1ccccc1)c1nnc(N)s1	x	x	5888	1	2	-19	1.7
COc1ccc(-c2nnc(-c3cccnc3)o2)cc1OC	-2	9	24717*	-5	-2	-12	3.8
Cc1ccccc1-c1nc(CN2CCC(C(=O)NCC3CCCO3)CC2)c(C)o1 (stereo unspecified)	5	-1	25315*	2	4	-16	0.8
COc1ccc(S(=O)(=O)N2CCOC2CNC(=O)C(=O)NCc2ccco2)cc1 (stereo unspecified)	-6	-8	4585	7	13	-21	3.0
Cn1cc(NC(=O)CCl)cn1	16	29	4098	-6	-2	-7	-0.1
CCOc1ccc(CCNC(=O)C2CCCN(c3nnc(-n4cccc4)s3)C2)cc1OCC (stereo unspecified)	13	-1	3446	3	-5	-13	-15
Cn1c(=O)oc2cc(S(=O)(=O)NC3CCCc4ccccc43)ccc21 (stereo unspecified)	10	10	5981	5	-6	-17	-9.1
COc1ccccc1-c1cn[nH]c1-c1ccc(OCc2ccc([N+](=O)[O-])cc2)cc1O	-2	0	4685	-1	-4	-21	4.5
COc1ccc(C(=O)NCCN2CCCC2)cc1	14	3	3452	-16	5	-18	6.0
CCOc1ccc(CCNS(=O)(=O)c2ccc(-c3ccc(=O)[nH]n3)o2)cc1OCC	10	6	4960	-5	6	-25	1.0
CC(=O)Nc1nc2ccc(S(=O)(=O)N3CCCCC3)cc2s1	1	-5	x	-8	2	-9	4.8
CN(C)c1ccc(/C=N/NC(=O)CSc2ccccn2)cc1	x	x	3814	6	x	-37	x
Cc1cc(C)nc(SCc2nnc(SCC(=O)N3CCCc4ccccc43)o2)n1	9	4	12933	-7	1	-11	7.5
Cn1c(=O)n(C)c2cc(N3CCCCC3)c(NC(=O)c3cccc(Cl)c3)cc21	-6	14	6430	1	-14	0	0.1
CC(=O)C1=C(O)C(=O)N(Cc2cccnc2)C1c1ccc(C(C)C)cc1 (stereo unspecified)	x	x	3410	5	x	47	x
CCC(C)(C)NC(=O)C(c1cccn1C)N(Cc1ccccc1)C(=O)Cn1nnc2ccccc21 (stereo unspecified)	0	-3	2187	8	2	-7	-11
O=S1(=O)N=C(SCCO)c2ccccc21	x	x	2190	0	12	-19	0.6
CC(=O)n1c2c(c3ccccc31)OC(N)=C(C#N)C2c1cccc(Cl)c1Cl (stereo unspecified)	-8	-6	2113	2	-28	-16	-8.3
Brc1ccc(OCCCN2CCOCC2)cc1	12	5	2740	5	10	-23	5.3
CCC(=O)N1CCCc2cc(S(=O)(=O)N3CCC(N4CCCCC4)CC3)ccc21	x	x	5832	8	-1	-13	-1.4
O=C(c1cc(C2CC2)nn1-c1ccccc1)N1CCN(S(=O)(=O)c2cccc(F)c2)CC1	0	-1	5145	x	1	10	0.3
O=C(NCc1ccccc1OC(F)(F)F)C1CCC(=O)N(CCc2ccccn2)C1 (stereo unspecified)	7	1	4729	-2	0	-14	3.4
Cc1ccc(CCC(=O)Nc2ccc(C)c(C)c2)o1	3	2	5172	5	1	-18	0.9
Cc1ccc(-n2nnc3c(=O)n(Cc4cccc(C)c4)cnc32)cc1	-9	11	4333	3	14	-12	11
Cn1c(SCC(=O)NC(C)(C)C)nnc1-c1ccc(C(C)(C)C)cc1	4	12	6259	16	8	-8	1.6

An excerpt of these results, with two lines to a compound:
Fields – Mtb hypoxia inh, Mtb hypoxia inh growth, Bead autofluor, BJeLR lethal, ugtP null kill, PrP UTR inh, RN4220 kill
- CCOc1ccc(-n2c(O)c(C=NCCN3CCNCC3)c(=O)[nH]c2=O)cc1
  3, 15, 6045, 5, 0, -17, 0.2
- CCC1CCCCN1P(=O)(c1ccc(C)o1)C(C)(C)C (stereo unspecified)
  10, 15, 12454, 0, -3, 6, 7.6

Additional results follow.
SMILES	Mtb hypoxia inh	Mtb hypoxia inh growth	Bead autofluor	BJeLR lethal	ugtP null kill	PrP UTR inh	RN4220 kill
CCN1CCN(c2nc(-c3cccnc3)nc3ccccc23)CC1	-9	-2	7042	9	0	-22	0.7
O=S(=O)(O)c1cnccc1Nc1cccc(C(F)(F)F)c1	-11	-6	3793	-3	8	-12	2.4
COc1cc([N+](=O)[O-])ccc1NC(=O)Nc1nc2c(s1)CCCC2	15	9	1889	-15	-7	-12	2.7
Cc1ccc(OCC(=O)Nc2ccc(Cl)cc2)c(-n2nc3ccccc3n2)c1	6	-3	5370	5	-5	-18	8.2
COc1cc2c(cc1OC)C(C)N(S(=O)(=O)c1cccs1)CC2 (stereo unspecified)	9	10	3519	4	0	-9	5.8
CC(=O)C(=[N+]=[N-])C(=O)NCc1ccccc1	x	x	4195	-8	-1	-29	0.9
COc1ccccc1C1C(C(C)=O)=C(O)C(=O)N1CCc1ccccc1 (stereo unspecified)	2	7	6873	0	-1	0	5.6
Cc1ccc(S(=O)(=O)NCC(=O)N(CC2CCCO2)C(C(=O)NCC2CCCO2)C(C)C)cc1 (stereo unspecified)	11	7	5907	2	13	-5	2.0
O=C(Cc1ccccc1Cl)Nc1cc(S(=O)(=O)N2CCOCC2)ccc1N1CCOCC1	10	5	7917	x	-4	-11	-0.5
OCCNc1ccc(Cl)cc1	7	8	3075	6	-7	-10	-10
CC1CC(=O)N(CC(=O)NCc2ccccc2)c2ccccc2S1(=O)=O (stereo unspecified)	1	-2	6315	1	4	4	3.5
CC1=C(C#N)C(Nc2ccc(Cl)cn2)(C(F)(F)F)C(=O)N1 (stereo unspecified)	5	9	5387	-2	-12	-28	8.7
Cc1ccc(/C=N/n2c(C3CCCCC3)n[nH]c2=S)cc1	x	x	3836	3	x	-18	x
CNc1nc2c(N)ncnc2n1[C@H]1O[C@@H](CO)[C@H](O)[C@@H]1O	-3	-7	3353	10	13	2	5.8
COc1ccc(OCC2c3cc(OC)c(OC)cc3CCN2C(=O)C(C)C)cc1 (stereo unspecified)	-8	2	3219	-55	8	-1	-0.6

Profiles, looked up by structure. Order of screens: Mtb hypoxia inh, Mtb hypoxia inh growth, Bead autofluor, BJeLR lethal, ugtP null kill, PrP UTR inh, RN4220 kill
CC1CC(=O)N(CC(=O)NCc2ccccc2)c2ccccc2S1(=O)=O (stereo unspecified) is entered as 1, -2, 6315, 1, 4, 4, 3.5
COc1cc([N+](=O)[O-])ccc1NC(=O)Nc1nc2c(s1)CCCC2 is entered as 15, 9, 1889, -15, -7, -12, 2.7

In the list so far, these have a tert-butyl group:
SMILES	Mtb hypoxia inh	Mtb hypoxia inh growth	Bead autofluor	BJeLR lethal	ugtP null kill	PrP UTR inh	RN4220 kill
CCC1CCCCN1P(=O)(c1ccc(C)o1)C(C)(C)C (stereo unspecified)	10	15	12454	0	-3	6	7.6
Cn1c(SCC(=O)NC(C)(C)C)nnc1-c1ccc(C(C)(C)C)cc1	4	12	6259	16	8	-8	1.6

Later entries.
SMILES	Mtb hypoxia inh	Mtb hypoxia inh growth	Bead autofluor	BJeLR lethal	ugtP null kill	PrP UTR inh	RN4220 kill
CN(/N=C\c1ccc(O)c(O)c1)c1nc(-c2ccccc2)cc(-c2ccccc2)n1	x	x	2304	-18	x	-1	x
CCN1C(=O)NC(c2ccc(Cl)cc2)C2=C1CCCC2=O (stereo unspecified)	6	-13	3955	5	10	-16	2.4
CC(NC1c2ccccc2-c2ccccc21)c1ccccc1 (stereo unspecified)	18	-18	3652	-4	48	14	2.7
Cc1ccc(S(=O)(=O)N(C)CC(=O)OCC(=O)N2CC(=O)Nc3ccccc32)cc1	-1	4	4164	-6	-6	-20	-5.6
CCCc1nc(-c2cc3ccc(C)cc3[nH]c2=O)no1	-14	3	5831	3	-2	-29	5.4
CC1(C)c2[nH]c3ccccc3c2C[C@@H]2C(=O)N(Cc3ccco3)C(=O)N21	x	x	2905	-2	x	-5	x
Cc1ccc(CS(=O)Cc2ccc(C(=O)N3CCN(c4ccccc4)CC3)o2)cc1 (stereo unspecified)	-7	-2	5070	9	33	-7	-2.9
NNC(=O)c1ccc2[nH]c3c(c2c1)CCCC3	12	3	4272	-6	8	-12	9.4

Bioassay records from PubChem.
